Cruzain inh Det = inhibitors of Trypanosoma cruzi cruzain with detergent. P25779. purified cruzain, Z-FR-AMC fluorescence, 0.01% Triton. Potency, µM, for the others: max response, negative = inhibition, most hits filed as inhibitors. 200,000 compounds, 0.43% hits;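 also: plate controls were neutral wells for no effect and buffer without enzyme for full effect; nearly all actives have a fitted effect of over 40% in size; top concentration of the series not given in the record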
Target sequence (P25779 123-467 limits assumed): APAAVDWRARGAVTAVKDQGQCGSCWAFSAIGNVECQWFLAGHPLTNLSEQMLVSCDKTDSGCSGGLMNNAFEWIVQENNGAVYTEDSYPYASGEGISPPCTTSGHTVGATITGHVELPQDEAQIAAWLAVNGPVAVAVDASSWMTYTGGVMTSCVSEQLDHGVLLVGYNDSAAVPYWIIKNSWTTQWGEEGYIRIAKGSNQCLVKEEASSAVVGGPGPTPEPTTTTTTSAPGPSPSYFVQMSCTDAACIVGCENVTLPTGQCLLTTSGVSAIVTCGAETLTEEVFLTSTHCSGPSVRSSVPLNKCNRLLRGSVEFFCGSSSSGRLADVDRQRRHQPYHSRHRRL
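Sodium acetate buffer (100 mM, pH 5.5) containing 5 mM DTT and 0.01% Triton X-100 hosted 1.5 nM cruzain and test compound for 15 min at room temperature. Cleavage of 2 uM Z-FR-AMC was then tracked by fluorescence.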
2A StopGo = FMDV 2A StopGo reporter, luciferase signal; human cells with a luciferase reporter of 2A StopGo recoding; control for the full effect not named in the record; Potency, µM (highest dose often 57.9 µM), for the others: at the highest dose signal change, negative = less light; 410,000 compounds, 1.2% hits; AID 1159524; active = well fitted falling curve with a large enough effect; inconclusive = small, poorly fitted or top-dose-only effect; inactive = no such curve, though single readings can be large or run the other way; tested in HEK293T cells; also: % is scaled to controls: 0 for no effect and ±100 for the full control effect; nearly all actives have a fitted effect of over 45% in size; luciferase light after 4 h
Marburg entry inh = blocks Marburg virus binding to or entry into cells | Marburg virus pseudotyped entry inhibition, cell reporter; control for the full effect not named in the record; about a third of the inactives were read at about 46 µM | AID 540276 | 300,000 compounds, 1.8% hits | Potency, µM (top dose mostly 37.8 µM), for inactives: at the top dose activity change, negative = inhibition, most hits filed as inhibitors; active = well fitted inhibition curve with a large enough effect; inconclusive = small, poorly fitted or top-dose-only effect, or effect the other way; inactive = flat fitted curve, though single readings scatter; tested in HEK293 cells; about a fifth of its hits are not listed in these tables; also: % is scaled to controls: 0 for no effect and ±100 for the full control effect; luciferase read-out
Lassa entry inh = Lassa virus entry inhibition | Lassa virus pseudotype entry inhibition, cell reporter; control for the full effect not named in the record | Potency, µM (doses to about 37.9 µM), for inactives: at the top dose activity change, negative = inhibition, most hits filed as inhibitors | AID 540256 | 300,000 compounds, 1.2% hits; active means well fitted inhibition curve with a large enough effect; inconclusive means small, poorly fitted or top-dose-only effect, or effect the other way; inactive means flat fitted curve, though single readings scatter; tested in HEK293 cells; also: % is scaled to controls: 0 for no effect and ±100 for the full control effect; nearly all actives have a fitted effect of over 50% in size; luciferase read-out
Cruzain inh noDet = cruzain (T. cruzi) inhibition without detergent. 200,000 compounds, 2.3% hits. purified cruzain, Z-FR-AMC fluorescence, no detergent. AID 1476. P25779. Potency, µM, for the others: max response, negative = inhibition, hits mostly inhibitors;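 also: plate controls were enzyme without inhibitor for no effect and buffer without enzyme for full effect; nearly all actives have a fitted effect of over 40% in size; top concentration of the series not given in the record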
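Detergent-free condition (0.00005% Triton X-100) in acetate buffer pH 5.5 with DTT. 1.5 nM enzyme and compound were pre-mixed 15 min, then 2 uM Z-FR-AMC substrate added; reaction progress from fluorescence change between first and third reads (60 s).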
RE007 growth inh = less growth of the S. pombe RE007 Vpr strain; S. pombe RE007 Vpr strain, BacTiter-Glo ATP luminescence, 24 h; control for the full effect not named in the record; Potency, µM (highest dose often 92.2 µM), without a hit: at the highest dose activity change, negative = less growth; 360,000 compounds, 0.21% hits; AID 651644; active = well fitted falling curve with a large enough effect; inconclusive = small, poorly fitted or top-dose-only effect; inactive = no such curve, though single readings can be large or run the other way;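 also: % is scaled to controls: 0 for no effect and ±100 for the full control effect; nearly all actives have a fitted effect of over 50% in size; the assay follows cell death caused by Vpr and the record does not say whether a fall means rescue or toxicity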
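Fission yeast RE007 carrying one integrated HIV-1 vpr copy, seeded at OD 0.01 in PMG+AL medium with 23 nL pinned compound. Grown 24 h at 30 degrees; viability read by BacTiter-Glo luminescence after 5 min.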
SARS PLP yeast = inhibitors of SARS-CoV papain-like protease in yeast. 330,000 compounds, 0.19% hits. AID 485353. S. cerevisiae expressing SARS-CoV PLpro, growth rescue; control for the full effect not named in the record. Potency, µM (top dose mostly 32.9 µM), inactives show top-dose activity, positive = growth rescue; active means well fitted rising curve with a large enough effect; inconclusive means small, poorly fitted or top-dose-only effect; inactive means no such curve, though single readings can be large or run the other way; also: 0% is about no effect; nearly all actives have a fitted effect of over 55% in size; growth read by luminescence after 48 h
NS1 function inh = blocks influenza NS1 protein function. 270,000 compounds, 0.4% hits. S. cerevisiae slowed by influenza A NS1, growth recovery by OD600. Potency, µM (doses to about 46.1 µM), without a hit: at the top dose activity, positive = more growth. AID 2326; active means well fitted rising curve with a large enough effect; inconclusive means small, poorly fitted or top-dose-only effect; inactive means no such curve, though single readings can be large or run the other way; also: nearly all actives have a fitted effect of over 50% in size
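A cell-based growth assay was used: compounds that relieve NS1-induced slow growth of budding yeast raise OD600. Assay medium was yeast nitrogen base with ammonium sulphate and -URA supplement, pH 6.0, with 2% galactose.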
* marks the source's active call; other numbers are inactive results; ? = inconclusive; . = not tested or not shown; [ ] = another dose, or the depositor's remark. Unless noted, calls follow the shape of the dose curve; as a rule, active = well fitted curve in the direction sought with a large enough effect; inconclusive = small, poorly fitted or top-dose-only effect, or another doubt; inactive = no such curve, though single readings can be large; an effect the other way counts as inactive or inconclusive. Potency is read from the fitted curve at half-maximal effect.

SMILES	Cruzain inh Det	2A StopGo	Marburg entry inh	Lassa entry inh	Cruzain inh noDet	RE007 growth inh	SARS PLP yeast	NS1 function inh
Cc1cc(O)c(C(c2ccccc2)N2CCN(c3ccc(F)cc3)CC2)c(=O)n1Cc1ccco1 (configuration not stated)	1.1%	0%	.	21%[46.1 µM]	?	.	.	.
O=S(=O)(c1ccccc1)c1ccc(C(F)(F)F)cn1	.	-3%	27%[46.1 µM]	-2%[46.1 µM]	.	7%	3%	-4%
Cc1cc([N+](=O)[O-])ccc1Nc1nc2ccccc2n2cnnc12	.	2%	.	.	.	-10%	0%	2%
COc1ccccc1NC(=O)C(Sc1ccccc1)c1ccccc1 (configuration not stated)	-3.6%	-20%	-16%	?	0%	-3%	-19%	-1%
CCC(Sc1nc2ccccc2c(=O)n1CCN1CCOCC1)C(=O)NCc1cccnc1 (configuration not stated)	-3.2%	-20%	4%	2%	1%	-18%	2%	12%
CC1CCN(C(=O)c2[nH]cnc2C(=O)N[C@@H](C)C(=O)OC(C)(C)C)CC1	.	4%	.	.	.	0%	0%	-9%
CC/C(=N\NC(=S)NC(C)C)c1ccc(OC(F)F)cc1	.	-26%	1%[46.1 µM]	-40%	.	-3%	2%	.
Cc1ccc(Nc2ccccc2)cc1	-2.6%	1%	-2%[46.1 µM]	11%	-22%	-2%	-9%	-4%
CN(C)S(=O)(=O)c1cccc(-c2cn3ccccc3n2)c1	2.9%	25%	?	14%	1%	1%	8%	-14%
Cc1ccc(CCNC(=O)c2ccc3nc4ccccc4c(=O)n3c2)cc1	.	-10%	.	.	.	1%	-3%	1%
COc1ccc(-n2c(O)c(C(C)=NC3CC3)c(=O)[nH]c2=O)cc1	2.1%	18%	2%	-16%	2%	1%	4%	?
COc1ccc(/C=C2\CCn3c2nc2cc(C(=O)O)ccc2c3=O)cc1OC	.	7%	-8%[46.1 µM]	-11%	.	-12%	-2%	2%
COc1cccc(C(=O)Nc2ccc(-n3nncc3-c3ccccc3)cc2)c1	2.1%	-18%	.	?	-5%	.	.	.
O=C(N/N=C/c1cccc(NC(=O)c2ccc(Cl)cc2)c1)c1ccc(O)cc1	.	16%	.	.	.	-6%	0%	-7%
CC(C)c1ccc2[nH]c(O)c(N=NC(=O)c3cccc(S(=O)(=O)N4CCCCC4)c3)c2c1	-6.8%	?	10µM*	?	25µM*	3%	-15%	18%
CN1CCN(C2=NC(=O)/C(=C/c3ccccc3OS(=O)(=O)c3ccccc3)S2)CC1	.	-24%	?	-3%[46.1 µM]	.	0%	13%	-1%
Cc1cc(/C=C(\C#N)C(=O)Nc2ccccc2)c(C)n1-c1ccc2c(c1)OCO2	-1.2%	-7%	?	?	?	-14%	-1%	17%
O=C(Nc1ccccc1Cl)O/N=C(/c1ccccc1)c1ccccn1	2.2%	-8%	?	-6%	0%	-17%	3%	3%
CNC(=S)NNS(=O)(=O)c1ccc(OC)cc1OC	.	13%	3%[46.1 µM]	6%[46.1 µM]	.	7%	-6%	.
O=C(CC1(O)C(=O)Nc2ccccc21)c1cccnc1 (configuration not stated)	3.1%	.	-10%	14%	-3%	-8%	-6%	-4%
NS(=O)(=O)c1ccc(CNC(=O)CNC(=O)c2ccc(F)cc2)cc1	.	-18%	.	.	.	-2%	-1%	0%
NC(=O)c1ccc(NC(=O)COC(=O)C(Cc2ccccc2)NC(=O)c2ccccc2)cc1 (configuration not stated)	.	-10%	21%[46.1 µM]	6%	.	13%	0%	3%
COC(=O)c1ccc(COc2ccc3c4c(c(=O)oc3c2)CCC4)o1	-8.0%	36%[activator]	-16%[46.1 µM]	18%	1%	11%	-4%	10%
S=C(Nc1ccc2nsnc2c1)N1CCCC1	.	85%[activator]	21%[46.1 µM]	12%	.	4%	-2%	7%
O=C1NC2(CCCCC2)C(=O)N1c1ccccc1	8.1%	5%	15%	?	7%	1%	1%	5%
Cc1ccccc1OCc1ccc(-c2nc(C#N)c(N3CCN(c4cccc(Cl)c4)CC3)o2)o1	-0.4%	-20%	5%[46.1 µM]	-6%[46.1 µM]	1%	.	.	.
COc1ccc(N(CC(=O)NCc2ccccc2C)S(=O)(=O)c2ccc(C)cc2)cc1OC	.	11%	3%	-10%	.	9%	-2%	-7%
CC(=O)c1cc2c(O)c(O)ccc2o1	-1.9%	1%	-3%	-16%	-3%	7%	0%	-1%
COc1cccc(/C=N/NC(=O)CNC(=O)c2ccc(S(=O)(=O)N3CCOCC3)cc2)c1OC	-3.5%	-23%	5%	?	6%	6%	14%	-19%
O=C(CN1CCCCC1)Nc1ccccc1C(=O)NC1CC1	.	0%	1%	-9%	.	-21%	0%	.

Of the compounds above, these contain a cyano group:
SMILES	Cruzain inh Det	2A StopGo	Marburg entry inh	Lassa entry inh	Cruzain inh noDet	RE007 growth inh	SARS PLP yeast	NS1 function inh
Cc1cc(/C=C(\C#N)C(=O)Nc2ccccc2)c(C)n1-c1ccc2c(c1)OCO2	-1.2%	-7%	?	?	?	-14%	-1%	17%
Cc1ccccc1OCc1ccc(-c2nc(C#N)c(N3CCN(c4cccc(Cl)c4)CC3)o2)o1	-0.4%	-20%	5%[46.1 µM]	-6%[46.1 µM]	1%	.	.	.

Other records
SMILES	Cruzain inh Det	2A StopGo	Marburg entry inh	Lassa entry inh	Cruzain inh noDet	RE007 growth inh	SARS PLP yeast	NS1 function inh
O=C(NCCCl)Nc1ccccc1NS(=O)(=O)c1cccs1	.	32%[activator]	-21%	1%	.	7%	-3%	.
C=CCn1c(SCc2nc3sc4c(c3c(=O)[nH]2)CCCC4)nc2ccccc2c1=O	-1.1%	-20%	2%	-2%	13µM*	8%	-11%	14%
Cc1ccc(CN(Cc2ccco2)C(=O)c2cccc(C)c2)cc1	-9.2%	2%	13%[46.1 µM]	-25%[46.1 µM]	3%	.	.	.
COCCNC(=O)c1c[nH]c2ccc(S(=O)(=O)N(C)c3ccc(C)c(C)c3)cc2c1=O	.	-23%	?	-11%	.	-12%	1%	-2%
Cc1cc(C)c(S(=O)(=O)Nc2ccc[nH]c2=O)c(C)c1	4.2%	-17%	-25%[46.1 µM]	-1%	-6%	18%	1%	1%
Cc1cc(C)n(CCc2nc(-c3ccc(F)cc3)cs2)n1	-6.1%	-7%	13%[46.1 µM]	3%[46.1 µM]	-8%	-2%	28%	9%
NS(=O)(=O)c1cccc(-n2cnnn2)c1	.	-7%	-9%[46.1 µM]	18%	.	-1%	0%	0%
O=C(C[n+]1ccc(/C=N/O)cc1)NCc1ccccc1	.	-4%	.	.	.	3%	0%	0%
COc1ccc(N2CCN(CCCNC(=O)c3ccc(CS(=O)(=O)c4ccc(OC)cc4)o3)CC2)cc1	.	-12%	.	.	.	16%	-3%	6%
Nc1nnnn1/N=C/c1ccc(O)cc1	-3.1%	28%	7%	5%	-6%	-19%	9%	-4%
CCN1C(=O)C2(C(C#N)=C(N)Oc3n[nH]c(-c4ccccc4)c32)c2ccccc21 (configuration not stated)	0.7%	1%	-3%	-6%	-2%	7%	18%	-10%
O=C(Nc1ccc(F)cc1F)N1CCN(CCc2ccccc2)CC1	.	-21%	2%[46.1 µM]	-18%[46.1 µM]	.	6%	0%	1%
Cc1ccc(-n2c(-c3ccccc3)n[nH]c2=S)c(C)c1	.	-5%	.	.	.	22%	5%	24%
Nc1ncnc2c1ncn2[C@@H]1O[C@H](CNC(=O)[C@@H](N)Cc2ccccc2)[C@@H](O)[C@H]1O	.	-13%	4%	.	.	-12%	-7%	.
CC(=O)c1ccc(NC(=O)C2CCCN2S(=O)(=O)c2ccc(F)cc2)cc1 (configuration not stated)	6.2%	-2%	.	.	9%	-6%	7%	-16%
COc1ccc(N2C(=O)c3ccc(NC(C)=O)cc3C2=O)cc1	1.0%	55%[activator]	1%	5%	-5%	-3%	4%	4%
C/C(=N\NC(=O)c1ccn(C)n1)c1ccc(NC(=O)C2CCCC2)cc1	-5.0%	-17%	-10%	26%	-9%	-17%	5%	6%
CCCC(=O)Nc1ccc2c(c1)nc(CN1CCN(C(C)=O)CC1)n2C	3.5%	-8%	-5%[46.1 µM]	-9%	-3%	7%	3%	12%
Cc1cccc(Nc2sc(C(=O)c3ccc(Cl)cc3)c(N)c2C(N)=O)c1	-0.2%	8%	.	1%[46.1 µM]	11%	.	.	.
COc1ccc(-c2noc(CN3CCN(c4cccc(Cl)c4)CC3)n2)cc1	-0.1%	-19%	-5%[46.1 µM]	3%[46.1 µM]	11%	.	.	.
O=S1(=O)CCC(NC(=S)N2CCCCC2)C1 (configuration not stated)	-0.6%	-24%	?	0%	-3%	.	1%	8%
FC(F)Sc1ccc(N=C2NN=C(c3ccc4c(c3)OCCO4)CS2)cc1	0.3%	-7%	?	?	3.2µM*	-2%[3.69 µM]	-2%	26%
Cc1ccccc1C(=O)NNC(=O)C12CC3CC(CC(C3)C1)C2	.	4%	6%[46.1 µM]	12%	.	-3%	0%	-2%
Cc1ccc(NC(=O)C(C)Sc2nc(=O)cc(N)n2-c2cccc(C)c2)cc1 (configuration not stated)	-18%	-5%	-16%[46.1 µM]	-27%[46.1 µM]	-9%	.	.	.
Oc1ccccc1C=NN=C1c2ccccc2-c2ccccc21	.	45%[activator]	8%	?	.	3%	.	.
COc1ccc(-n2nc3cc(C)c(NC(=O)c4cccnc4)cc3n2)cc1	-0.1%	5%	-24%	-4%	0%	-1%	0%	-10%
COc1ccc(-n2c(Cc3cc(=O)[nH]c(=O)[nH]3)nnc2SCC(=O)N2CCC(C)CC2)cc1	9.6%	-13%	-1%	.	4%	2%	-9%	?
COc1ccc(CNc2nc(-c3cccnc3)nn2C(=O)C(C)C)cc1	.	-9%	20%[46.1 µM]	19%[46.1 µM]	.	-3%	-1%	.
COc1ccc(/C=N/NC(=O)c2ccc(-n3cnnn3)cc2)cc1	.	-3%	-10%[46.1 µM]	-18%	.	-6%	0%	.
Cc1ccc(C)c(OCCC(=O)N2CCN(S(=O)(=O)c3cc(C)ccc3C)CC2)c1	.	-28%	?	?	.	6%	.	.

Screening results as filed in PubChem BioAssay.
